Screening results deposited in PubChem by several laboratories.
Mtb bLac sens – beta-lactam sensitization of Mtb H37Rv, H37Rv. M. tuberculosis H37Rv growth with meropenem, percent inhibition; hits of this screen are not shown here. 330,000 tested, 0.27% active. inhibition, % at 25 µM;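 active means about 74% or more and at least 40 points above the plate without the antibiotic, then above 30% in a dose series; inconclusive means first-round hits that could not be retested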;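 further: growth measured after seven days incubation then overnight dye step; 0% = bacteria only wells and 100% = bacteria with antibiotic; twin plates without the antibiotic show which effects depend on it; some results filed as inactive read as strong as hits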
YopH PTP inh – YopH tyrosine phosphatase inhibitors, primary screen, biochemical, fluorescence Ex485/Em525; inhibition, %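 (about 10 µM by stock and volumes)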; 140,000 tested, 0.16% active;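 active means inhibition of 50% or more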;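 further: controls were vehicle for no effect and minimum signal wells for full effect; inactives centre near -20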
Arbovirus inh – antivirals against arbovirus infection, primary screen, cell-based, full library, 10K replicate subset; arbovirus infection cell-based antiviral screen; inhibition, % at 10 µM; 200,000 tested, 0.37% active;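 active means inhibition from about 30%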;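 further: bluetongue infection of BSR cells; cell survival read as ATP light after 72 h; 0% = infected wells without compound and 100% = uninfected wells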
Mtb H37Rv – M. tuberculosis H37Rv growth inhibitors, H37Rv strain (AID 1626). M. tuberculosis H37Rv growth inhibition; higher % means a stronger effect. 220,000 tested, 0.95% active. one-dose inhibition, % at 10 µM; IC50 in µM for titrated hits;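 active means confirmed in a dose series; inconclusive means inhibition above 80% but not taken into the dose series; inactive means below 80% or under 30% at every dose of the series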;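 further: bacteria incubated seven days before Alamar blue readout; 0% = bacteria only wells and 100% = bacteria with antibiotic wells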
RecA intein inh – Mtb RecA intein splicing inhibitors, primary screen, biochemical, fluorescence, HTS | Protein RecA (Mycobacterium tuberculosis (strain ATCC 25618 / H37Rv)), P9WHJ3 | 290,000 tested, 0.75% active | cell-free RecA intein splicing | inhibition, %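 (about 9 µM by stock and volumes)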; in the data active means inhibition above about 30%; inconclusive means no clear call, values can overlap the other calls;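 further: 0% = vehicle wells and 100% = reference inhibitor control wells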
Target sequence (P9WHJ3 whole entry, looked up): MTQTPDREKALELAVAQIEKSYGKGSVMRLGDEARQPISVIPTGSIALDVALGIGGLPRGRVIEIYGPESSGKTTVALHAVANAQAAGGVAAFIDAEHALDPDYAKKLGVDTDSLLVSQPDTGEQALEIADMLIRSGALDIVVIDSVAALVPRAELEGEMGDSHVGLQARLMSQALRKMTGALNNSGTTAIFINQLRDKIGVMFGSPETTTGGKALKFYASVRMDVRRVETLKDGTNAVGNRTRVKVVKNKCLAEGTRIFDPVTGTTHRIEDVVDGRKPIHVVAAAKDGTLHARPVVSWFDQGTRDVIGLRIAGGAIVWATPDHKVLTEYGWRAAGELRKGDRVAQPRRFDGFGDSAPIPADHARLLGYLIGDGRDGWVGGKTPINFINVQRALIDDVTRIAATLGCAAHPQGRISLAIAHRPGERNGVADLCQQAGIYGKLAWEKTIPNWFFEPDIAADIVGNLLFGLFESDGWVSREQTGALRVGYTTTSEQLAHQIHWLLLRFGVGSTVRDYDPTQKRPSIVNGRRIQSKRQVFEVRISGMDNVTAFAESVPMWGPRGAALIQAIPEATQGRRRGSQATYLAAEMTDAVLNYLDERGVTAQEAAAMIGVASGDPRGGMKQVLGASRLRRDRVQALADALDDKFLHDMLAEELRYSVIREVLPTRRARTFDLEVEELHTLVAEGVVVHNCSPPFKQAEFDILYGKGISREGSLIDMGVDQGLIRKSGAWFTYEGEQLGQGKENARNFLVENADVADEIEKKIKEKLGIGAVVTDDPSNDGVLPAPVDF
Arbovirus inh repeat – second read-out of Arbovirus inh, no call of its own (marks repeat the call); inhibition, %; measured here: 10K subset replicate screen; many hits read low in the repeat;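 first of two repeat runs on a subset; 0% = infected and 100% = uninfected wells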
The depositor's hits bear a star; ? = inconclusive; nt = not tested or not shown.

SMILES	Mtb bLac sens	YopH PTP inh	Arbovirus inh	Mtb H37Rv	RecA intein inh	others
Fc1ccc(-n2cc(-c3ccccc3)c3c(NN4CCOCC4)ncnc32)cc1	18.5	-16.9	-7.0	-8.0%	2.1
O=C(c1ccc(F)cc1)C1CCN(C(=O)c2c(F)cccc2F)CC1	-7.2	nt	nt	nt	1.1
C=CCOc1cccc(C(=O)N2CCCC(Nc3ccc(F)cc3)C2)c1 (configuration not stated)	-6.3	nt	nt	nt	-1.4
Nc1nc2c([N+](=O)[O-])cccc2s1	-3.8	nt	3.7	-3.2%	-2.0
CCc1ccc(S(=O)(=O)NC(CC(=O)O)c2ccccc2)cc1 (configuration not stated)	-0.5	-14.2	-0.1	-13.9%	-1.9
Cc1ccc(C(C)NC(=S)NCc2ccc(F)cc2)c(C)c1 (configuration not stated)	-2.0	nt	nt	nt	7.1
NS(=O)(=O)c1ccc(NC(=S)NC(=O)c2cccs2)cc1	-4.4	nt	nt	2.1%	1.4
Cc1ccc(CNc2ccc3c(c2)ncn3C(C)C)cc1	51.9	nt	nt	-1.8%	-7.4
O=C(Nc1ccccc1)NN(C(=O)CCl)c1ccccc1	85.9	nt	nt	nt	67.8*
O=C(Nc1ccc(N2CCOCC2)c(Cl)c1)c1cc(F)c(F)cc1Cl	5.2	0.1	-11.2	9.4%	0.5
CCCNC(=O)c1c(N)n(-c2ccc3c(c2)OCO3)c2nc3ccccc3nc12	-7.1	-41.8	-25.5	-3.4%	0.6
Cc1cccc[n+]1CC(=O)c1ccccc1	-1.2	nt	nt	nt	-1.2
CCOC(=O)C1CCN(C(=O)CN(c2cccc(OC)c2)S(=O)(=O)c2ccccc2)CC1	-10.4	-11.9	3.4	-17.7%	0.1	Arbovirus inh repeat=1.2
Cc1nc(CN2CCOCC2)cc(=O)[nH]1	-6.4	-37.2	3.0	-9.5%	0.1
COc1cccc(C(=O)N/N=C2\SCC(=O)N2Cc2ccc3c(c2)OCO3)c1	1.5	-20.0	-0.1	-3.9%	4.2
O=C(COC(=O)/C=C/c1ccccc1)NCc1ccccc1Cl	0.1	nt	3.0	-1.3%	0.3
NNc1nc2cccnc2n(CCNc2ncc(C(F)(F)F)cc2Cl)c1=O	0.2	nt	-11.8	0.5%	-2.5
CCOC(=O)C1CCN(CCC(=O)Nc2ccccc2)CC1	-5.0	-10.5	11.3	-19.8%	0.4
CC(C)n1nc(CC(=O)O)c2ccccc2c1=O	2.9	nt	1.3	-0.7%	1.3
COc1cc(OC)cc(-n2nc(C(=O)N3CC(C)CC(C)C3)c3ccccc3c2=O)c1 (configuration not stated)	?	-28.5	-0.1	4.8%	-0.1
Cc1cc(C(=O)N/N=C/c2ccc3c(c2)OCO3)c(C)n1-c1ccc(F)cc1	46.5	nt	-32.6	-2.2%	5.6
O=C(O)c1nn(Cc2ccc(Cl)cc2Cl)c2ccccc12	-0.1	nt	15.0	4.3%	3.7
COc1cc2c(cc1OC)CN(CC(=O)Nc1ccccc1C(=O)NCc1ccccc1)CC2	1.8	nt	nt	nt	0.9
O=C(Cc1cccs1)N/N=C/C=C\c1ccccc1[N+](=O)[O-]	-7.0	nt	0.4	-2.0%	-1.7
COC(=O)c1cc2ccsc2n1Cc1nc(-c2ccc(Cl)cc2)oc1C	2.8	-2.4	19.3	7.6%	4.7
COc1ccccc1C(=O)Nc1ccc(NC(=O)c2ccco2)c(C)c1	-2.5	-174.2	-9.1	-1.5%	-2.0
O=C(CSc1ccc2ccccc2c1)NCCc1ccc(O)c(O)c1	-4.7	nt	-5.3	4.6%	4.7
Cc1ccc(S(=O)(=O)CCC(=O)OCc2ccc(Cl)c(Cl)c2)cc1	2.8	-16.2	4.9	3.2%	7.7
Cc1ccc(CN(Cc2cccnc2)C(=S)Nc2cc(Cl)ccc2C)cc1	2.3	nt	3.5	6.4%	5.8
O=C(CCc1ccc(S(=O)(=O)NC2CCCCC2)cc1)NCc1cccnc1	-9.4	nt	3.7	nt	2.5

In the list so far, three have four or more nitrogen atoms:
SMILES	Mtb bLac sens	YopH PTP inh	Arbovirus inh	Mtb H37Rv	RecA intein inh	others
Fc1ccc(-n2cc(-c3ccccc3)c3c(NN4CCOCC4)ncnc32)cc1	18.5	-16.9	-7.0	-8.0%	2.1
CCCNC(=O)c1c(N)n(-c2ccc3c(c2)OCO3)c2nc3ccccc3nc12	-7.1	-41.8	-25.5	-3.4%	0.6
NNc1nc2cccnc2n(CCNc2ncc(C(F)(F)F)cc2Cl)c1=O	0.2	nt	-11.8	0.5%	-2.5

(cont.)
SMILES	Mtb bLac sens	YopH PTP inh	Arbovirus inh	Mtb H37Rv	RecA intein inh	others
COc1ccc(-c2cc(-c3n[nH]c(=S)n3-c3ccccc3OC)[nH]n2)cc1	-0.4	-19.0	-0.8	-4.0%	2.4
COc1ccc(C(=O)NC2CCN(CC(=O)Nc3cccc(C)c3)CC2)cc1OC	3.6	-9.4	4.4	-1.3%	-0.9
O=C(c1ccccc1)c1c[nH]c(C(=O)NNc2ccccc2)c1	2.4	nt	-29.9	?	-1.7
O=C(O)C(CCCCN1C(=O)C2C3C=CC(C3)C2C1=O)N1C(=O)C2C3C=CC(C3)C2C1=O (configuration not stated)	-3.9	-39.9	-0.2	-3.8%	2.6
COC(=O)c1cc2c(C)c(C)c3ccccn3c-2c1C(=O)OC	-5.1	0.1	-15.9	-9.0%	-1.4
COc1ccc(/C=C2\SC(=O)N(CC(=O)NNC(=O)c3ccccc3O)C2=O)cc1OC	0.5	-33.1	-16.6	-8.6%	3.1
COc1ccc(CNC(=O)C2=CC(c3ccc(OC)cc3)=NS(=O)(=O)N2C)cc1	2.6	nt	nt	nt	4.7
CC1=CC2/C=C(\C)CCC(O)C(O)/C=C/C(=O)C23C(=O)NC(CC(C)C)C3C1C (configuration not stated)	26.8	nt	-20.4	-9.1%	0.5
O=C1COc2ccc(C(=O)CSc3nnc(-c4cccs4)n3Cc3ccccc3)cc2N1	20.2	-32.4	4.6	13.2%	-0.5
O=C(C1Cc2ccccc2CN1S(=O)(=O)c1cccs1)N1CCCCC1 (configuration not stated)	-8.3	-28.1	2.2	0.7%	2.7
Oc1ccc(C2C[C@H]3CC[C@@H]2C3)cc1O (some centres not stated)	?	nt	nt	nt	26.7
COc1ccc(/C=N\NC(=O)C2CCCC2)cc1Br	1.3	nt	nt	nt	-2.7
CCOc1ccc(C2C(C(=O)c3cccs3)=C(O)C(=O)N2CCN2CCOCC2)cc1 (configuration not stated)	2.5	nt	nt	nt	-0.2
COCCN(C(=O)Cn1nnc2ccccc21)C(C(=O)NC1CCCC1)c1ccc(OC)cc1OC (configuration not stated)	-11.2	-5.6	1.6	-8.2%	0.8
O=C(C[n+]1cc(-c2ccccc2)n2c1CCC2)N1c2ccccc2Sc2ccccc21	88.3	-7.0	-17.3	22.5µM*	1.5

Two records picked at random from those above, as already listed:
SMILES	Mtb bLac sens	YopH PTP inh	Arbovirus inh	Mtb H37Rv	RecA intein inh	others
O=C(c1ccccc1)c1c[nH]c(C(=O)NNc2ccccc2)c1	2.4	nt	-29.9	?	-1.7
O=C(O)C(CCCCN1C(=O)C2C3C=CC(C3)C2C1=O)N1C(=O)C2C3C=CC(C3)C2C1=O (configuration not stated)	-3.9	-39.9	-0.2	-3.8%	2.6

Back to the main list; the five compounds before the break are reprinted first.
SMILES	Mtb bLac sens	YopH PTP inh	Arbovirus inh	Mtb H37Rv	RecA intein inh	others
Oc1ccc(C2C[C@H]3CC[C@@H]2C3)cc1O (some centres not stated)	?	nt	nt	nt	26.7
COc1ccc(/C=N\NC(=O)C2CCCC2)cc1Br	1.3	nt	nt	nt	-2.7
CCOc1ccc(C2C(C(=O)c3cccs3)=C(O)C(=O)N2CCN2CCOCC2)cc1 (configuration not stated)	2.5	nt	nt	nt	-0.2
COCCN(C(=O)Cn1nnc2ccccc21)C(C(=O)NC1CCCC1)c1ccc(OC)cc1OC (configuration not stated)	-11.2	-5.6	1.6	-8.2%	0.8
O=C(C[n+]1cc(-c2ccccc2)n2c1CCC2)N1c2ccccc2Sc2ccccc21	88.3	-7.0	-17.3	22.5µM*	1.5
C/C(Cl)=C/CSc1nc2c(c(=O)[nH]c(=O)n2C)n1C(C)C	-2.0	-4.8	-1.4	-3.3%	-2.9
C(=C\c1nc(-c2ccccc2)no1)/c1ccccc1	-2.3	-15.2	21.2	9.7%	4.0
COCCCNc1ncnc2c1sc1nc(-c3ccco3)c3c(c12)CC(C)(C)OC3	17.7	nt	nt	nt	2.5
CCOC(=O)c1ccc(NC(=O)CN2C(=O)CSC(C)C2=O)cc1 (configuration not stated)	-2.2	-19.0	7.0	2.4%	0.0
Cc1onc(-c2c(Cl)cccc2Cl)c1C(=O)Nc1c(C)n(C)n(-c2ccccc2)c1=O	nt	-44.3	-3.2	-4.1%	-1.0
COc1ccc(CCNC(=O)C23CN(Cc4ccccc4)CC2C(c2cccc([N+](=O)[O-])c2)=NO3)cc1 (configuration not stated)	-11.6	7.0	-1.4	-3.9%	2.8
Cn1c(O)c(N=NC(=N)N)c2ccccc21	-11.5	nt	nt	-14.2%	0.9
CS(=O)(=O)N(Cc1ccccc1)c1ccc(C(=O)Nc2ccccc2C(=O)O)cc1	-5.3	nt	nt	nt	1.4
CCOc1ccccc1CNC(=O)CNC(=O)c1cccs1	-9.9	nt	nt	nt	-0.7
CC1=Nn2c(nnc2-c2ccccc2Cl)SC1	-1.6	-7.4	3.8	-9.0%	-2.0
Cc1ccc(S(=O)(=O)N2CCN(C(=O)COC(=O)CNC(=O)c3ccc(Cl)cc3Cl)CC2)cc1	-11.5	nt	nt	nt	2.4
COc1cc2c(C#N)c(N3CCc4ccccc4C3)nc(N)c2c(N)n1	64.3	16.2	-17.9	4.4%	0.3
COC(=O)c1c(C)n(Cc2ccccc2)c2ccc(O)cc12	-2.4	nt	2.6	-0.2%	-1.9
O=C(CNC(=O)c1sc2ccccc2c1Cl)Nc1ccccc1F	-8.8	nt	nt	nt	-0.9
NS(=O)(=O)c1ccc(NC(=O)NC2CCCCC2)cc1	4.0	1.5	8.5	nt	0.6
CCOC(=O)C1(CC2CCCCO2)CCN(Cc2cccnc2)CC1 (configuration not stated)	0.6	nt	3.6	6.0%	nt
CCOC(=O)c1c(NC(=O)CSc2nc3nc(C)cc(C)n3n2)sc(CC)c1C	4.8	-15.9	4.1	-3.7%	-2.1
Cn1c(SCCOc2cccc(Cl)c2)nnc1-c1ccncc1	26.7	-50.7	-2.1	3.3%	0.9
C#CCNC(=O)C1=C[C@H](c2coc3ccccc3c2=O)C[C@H](OCc2ccc(CO)cc2)O1	-6.9	nt	0.7	-1.0%	2.5
COc1cc(C(=O)N2CCCc3ccccc32)cc(OC)c1OC	4.7	-18.9	-16.2	2.1%	-0.6
CCOC(=O)C1(Cc2cccc(OC)c2)CCN(C2CCOCC2)CC1	-0.3	nt	-11.9	-1.2%	-1.1
COCCn1c(N/N=C(C)/C=C/c2ccccc2)nc2c1c(=O)[nH]c(=O)n2C	-0.2	nt	-5.0	6.4%	-5.0
CC1(C)Cc2c(sc3nc(SCC(=O)O)nc(N)c23)CO1	-4.9	nt	nt	nt	-4.0
CCC[C@@H](CN[C@@H](CNC)[C@H](C)CC)NCC1CCC(C(C)(C)C)CC1 (some centres not stated)	99.6	nt	nt	nt	1.5
O=c1[nH]c(SCc2ccccc2)nc2ccsc12	3.0	nt	2.7	1.1%	1.7
CN(C)c1ccc(CN2CCCCCC2)cc1	-3.4	-0.2	-2.3	10.8%	-2.1	Arbovirus inh repeat=10.3
CC(C)CC(NC(=O)C1CCC(C)CC1)C(=O)Nc1ccccn1 (configuration not stated)	3.6	-14.8	5.2	-12.8%	2.0	Arbovirus inh repeat=-0.2

These rows are one share of the data, so the mix of outcomes need not match the whole.
